StopGo RLuc: FMDV 2A StopGo reporter, Renilla signal. Potency, µM (highest dose often 57.5 µM), for the others: at the highest dose signal change, negative = less light. HEK cells with a luciferase reporter of 2A StopGo recoding. 120,000 compounds, 0.32% hits. AID 1745857; active means well fitted falling curve with a large enough effect; inconclusive means small, poorly fitted or top-dose-only effect; inactive means no such curve, though single readings can be large or run the other way; further: nearly all actives have a fitted effect of over 55% in size; overnight with compound
StopGo FLuc: lowers the firefly signal of an FMDV 2A StopGo reporter; HEK cells with a luciferase reporter of 2A StopGo recoding; Potency, µM (doses to about 57.5 µM), for the others: at the top dose signal change, negative = less light; 120,000 compounds, 0.23% hits; AID 1745856; active = well fitted falling curve with a large enough effect; inconclusive = small, poorly fitted or top-dose-only effect; inactive = no such curve, though single readings can be large or run the other way; further: nearly all actives have a fitted effect of over 60% in size; overnight with compound
Starred values were filed as active, the others as inactive; ? = inconclusive; & = joins results of further samples; [ ] = dose if it differs, or a comment. On the % scale 0 is the no-effect control and ±100 the full control effect; potency means the concentration at half of the fitted maximal effect. This is a subset (hit frequency here may not be typical).

The line under a structure holds: StopGo RLuc	StopGo FLuc
> CCCN1C(=O)c2cc(C(=O)NCc3ccc(C)cc3)nn2CC1(C)C(=O)NC1CCCC1 (stereo not given)
    -2%	2%
> CCOC(=O)N1CCc2c(sc(NCc3cccc(F)c3)c2C(=O)Nc2ccc(OC)cc2)C1
    -1%	?
> CCCCC12CN3CC(C)(CN(C1)C3c1cc(Br)ccc1O)C2=O (stereo not given)
    3%	-11%
> CCOc1ccc(CNS(=O)(=O)c2cc3c(cc2C)NC(=O)CO3)cc1
    -3%	-14%
> COc1ccc(C(=O)Nc2oc3ccc(Cl)cc3c(=O)c2-c2cccc(OC)c2)cc1
    -18%	-4%
> CCCCc1nn2c(=O)cc(COC(=O)c3cccc(Cl)c3)nc2s1
    9%	23%
> CCc1ccc(NC(=O)CC2C(=O)N(c3cccc(C)c3)C(=O)N2Cc2ccc(F)cc2)cc1 (stereo not given)
    25%	-24%
> Cc1nc(Nc2ccc(NC(=O)c3cccs3)cc2)cc(N2CCCCC2)n1
    ?	?
> CC1(C)CC(=O)c2c(nc(SCC(N)=O)c(C#N)c2-c2ccccc2)C1
    6%	15%
> COC(=O)c1ccccc1NC(=O)[C@H]1O[C@@H]2OC(C)(C)O[C@@H]2[C@H]2OC(C)(C)O[C@H]21
    -5%	15%
> COc1ccc(N2CCN(c3ncnc4c3nc3n4CCCCC3)CC2)cc1
    -25%	-24%
> CC1CCCCN1C(=O)CSc1nc2ccccc2nc1Cc1ccccc1 (stereo not given)
    -3%	?
> CSc1ccc(CNCCN2CCCC2)cc1
    9%	-7%
> CC1(C)CC(Nc2nccc(C(F)(F)F)n2)CC(C)(C)N1
    -3%	-1%
> O=C(c1ccc2c(c1)N(Cc1ccc(Cl)cc1)C(=O)c1ccccc1S2(=O)=O)N1CCc2ccccc21
    57%[activator]	-17%
> CN(CC(=O)N1c2ccccc2OCC1c1ccccc1)Cc1nc2ccccc2c(=O)[nH]1 (stereo not given)
    3%	-12%
> COc1ccccc1C(=O)Nc1ccc(N2CCN(C(=O)CC(C)C)CC2)cc1
    -5%	-15%
> O=C(O)CCCOc1ccc(Cl)cc1
    3%	8%
> O=C1COc2cc(S(=O)(=O)NCc3ccco3)c(Cl)cc2N1
    -6%	-18%
> N#C/C(=C\c1ccc(-c2ccccc2C(=O)O)o1)c1nc2ccccc2[nH]1
    -1%	-20%
> CCc1ccc2nc(N3CCC(C(=O)O)CC3)sc2c1
    36%[activator]	-78%
> CN(C)c1ccc(NC(=O)c2ccc3c(c2)NC(=O)CS3)cc1
    12%	179%[activator]
> O=c1[nH]nc(-c2ccco2)c2c1Nc1nnnn1C2c1ccc(Br)cc1 (stereo not given)
    22%	21%
> CC(C)C(=O)NCc1ccccc1
    3%	-5%
> O=C(CCSc1nc2cc(Cl)ccc2s1)Nc1ccccc1
    3%	7%
> O=C(O)C/C(=C/c1cccc(/C=C(/CC(=O)O)c2nc3ccccc3o2)c1)c1nc2ccccc2o1
    -13%	5%
> COc1cc(NC(=O)Cn2cnc3c2c(=O)n(C)c(=O)n3C)c(OC)cc1Cl
    2%	32%[activator]
> COc1ccccc1CNC(=O)COc1cc(=O)n(C)c2ccccc12
    0%	-5%
> CONC(=O)c1ccc(NC(=O)c2cccs2)cc1
    7%	5%
> COC(=O)/C(C#N)=C\c1cc(OC)c(OC)cc1Br
    -9%	11%

3 entries from above, arranged by heavy-atom count, high to low:
The line under a structure holds: StopGo RLuc	StopGo FLuc
> O=C(c1ccc2c(c1)N(Cc1ccc(Cl)cc1)C(=O)c1ccccc1S2(=O)=O)N1CCc2ccccc21
    57%[activator]	-17%
> COc1ccc(C(=O)Nc2oc3ccc(Cl)cc3c(=O)c2-c2cccc(OC)c2)cc1
    -18%	-4%
> CCCCC12CN3CC(C)(CN(C1)C3c1cc(Br)ccc1O)C2=O (stereo not given)
    3%	-11%

Given as labelled records: 4 of the compounds above
O=C(CCSc1nc2cc(Cl)ccc2s1)Nc1ccccc1
  StopGo RLuc: 3%
  StopGo FLuc: 7%

O=C(O)C/C(=C/c1cccc(/C=C(/CC(=O)O)c2nc3ccccc3o2)c1)c1nc2ccccc2o1
  StopGo RLuc: -13%
  StopGo FLuc: 5%

COc1cc(NC(=O)Cn2cnc3c2c(=O)n(C)c(=O)n3C)c(OC)cc1Cl
  StopGo RLuc: 2%
  StopGo FLuc: 32%[activator]

COc1ccccc1CNC(=O)COc1cc(=O)n(C)c2ccccc12
  StopGo RLuc: 0%
  StopGo FLuc: -5%

The listing continues:
The line under a structure holds: StopGo RLuc	StopGo FLuc
> Cc1ccc(C)c(N2CCN(CCCNC(=O)c3cnn(-c4ccccc4)c3C3CCN(C(=O)OC(C)(C)C)CC3)CC2)c1
    -18%	-10%
> COc1cccc(-c2nc(C)c(C(=O)NCc3ccncc3)s2)c1
    59%[activator]	186%[activator]
> Cc1cc(C)cc(C(=O)N(Cc2ccncc2)C2CC2)c1
    13%	-10%
> CC(NC(=O)Cc1ccc(Br)cc1)C1CC2CCC1C2 (stereo not given)
    12%	0%
> COc1ccc(-c2nnc(SCC(=O)Nc3cccc(C(F)(F)F)c3)s2)cc1
    33%[activator]	82%[activator]
> O=C(CSc1n[nH]c(-c2ccccc2Cl)n1)NCc1ccc(F)cc1
    3%	-14%
> O=C(Nc1nnc(CCc2ccccc2)s1)c1cc(=O)[nH]c2ccccc12
    -1%	8%
> CCC(=O)Nc1nnc(S(=O)(=O)N2CCc3ccccc32)s1
    -9%	-9%
> CC(Sc1cc(Cl)ccc1Cl)C(=O)NC(C)c1ccccn1 (stereo not given)
    21%	12%
> CC(=O)N1CCC(NC(=O)c2ccc3nc(C)c(C)nc3c2)CC1
    -9%	14%
> Cc1cc(C)cc(OCC(=O)Nc2ccc(Cl)cc2C(=O)c2ccccc2)c1
    -2%	0%
> CCC(=O)N1CCc2cc(Br)cc(S(=O)(=O)N3CCCC(C(=O)N(C)c4ccc(Br)cc4)C3)c21 (stereo not given)
    26%	0%
> CCCOc1ccccc1NC(=O)c1nn(C)c(=O)c2ccccc12
    -8%	-5%
> CCOC(=O)c1sc2ccccc2c1S(=O)(=O)NCc1ccccc1OC
    280%[activator]	-5%
> O=C(CSc1nc(-c2ccc(F)cc2)cc(C(F)(F)F)n1)NCCc1ccccc1
    -7%	53%[activator]
> Cn1nnc2c(NCc3ccccc3)ncnc21
    -3%	-8%
> CC(=O)c1cccc(S(=O)(=O)N2CCN(c3ccccc3F)CC2)c1
    -19%	?
> COc1cccc(-n2c(SCc3ccc(F)cc3)nc3c([nH]c4ccccc43)c2=O)c1
    -13%	-17%
> CN1CCN(c2oc(COc3ccccc3F)nc2C#N)CC1
    11%	119%[activator]
> COC(=O)c1ccc(NC(=O)CCn2cnnn2)c(C)c1
    -7%	-8%
> CCC(=O)N1c2ccc(S(=O)(=O)NCCc3ccccc3)cc2CC1C (stereo not given)
    359%[activator]	0%
> Cc1ccc(NC(=O)c2oc3ccc(S(=O)(=O)N4CCOCC4)cc3c2C)c(C)c1
    -7%	-5%
> Cn1nc(C(=O)NC(c2ccccc2)c2cccs2)c2ccccc2c1=O (stereo not given)
    -2%	-4%
> O=C(Cn1ncc2c3ccccc3n(Cc3cccc(Cl)c3)c2c1=O)N1CCCCC1
    -2%	-6%
> COc1ccc(C(=O)/C=C/c2cccs2)c(OC(=O)c2ccco2)c1
    34%[activator]	185%[activator]
> Cc1cc(NC(=O)CN2C(=O)C(C)(C)c3ccccc32)ccc1Br
    -5%	-12%
> O=C(Cn1ccn2nc(-c3ccccc3)cc2c1=O)NCc1ccc2c(c1)OCO2
    6%	-4%
> CC(Sc1nnc(-c2ccco2)n1C(C)C)C(=O)Nc1nccs1 (stereo not given)
    6%	-1%
> CC(C)Cc1nc2cccnc2n1C1CCN(S(=O)(=O)c2ccc(Br)s2)CC1
    -14%	?
> CCN1CCCC1=O
    -10%	-16%[11.5 µM]

The line under a structure holds: StopGo RLuc	StopGo FLuc
> O=C1c2[nH]nc(-c3ccccc3O)c2C(c2cccc(O)c2)N1Cc1ccncc1 (stereo not given)
    121%&138%[activator]	2%&-15%
> CCOc1ccccc1NC(=O)CC(c1ccc(F)cc1)N1Cc2ccccc2C1=O (stereo not given)
    159%[activator]	-16%
> O=C(NC1CCCCC1)c1cccc(Nc2cc(-c3cccc(F)c3)ncn2)c1
    -7%	138%[activator]
> COc1ccc(-c2c(C)oc3cc(OC(=O)c4ccccc4)ccc3c2=O)cc1
    2%	16%
> O=c1oc(-c2ccncc2)cc2ccccc12
    10%	20%
> N#CCCN(C(=O)Cn1nc(C(=O)O)c2ccccc2c1=O)c1ccc(F)cc1
    0%	-8%
> O=C1CSC(c2ccc(F)c(Br)c2)c2cn[nH]c2N1 (stereo not given)
    -8%	0%
> Cc1cc(OS(C)(=O)=O)cc2c1C(=O)/C(=C/c1ccncc1)O2
    17%	3%
> Cc1cccc(NC(=O)c2ccccc2NC(=O)c2nc(-c3ccccc3)oc2C)c1
    -17%	1%
> Cc1ccc2c(c1)sc1nc(-c3cc4ccccc4oc3=O)cn12
    5%	-71%
> COc1cc(CNC(=O)N2CCN(Cc3ccc(Br)s3)CC2)cc(OC)c1OC
    ?	?
> Cn1nc(C(=O)OCCCc2ccccc2)c2ccccc2c1=O
    ?	?
> Cc1ccc(CN2CCN(C3CCN(C(=O)OC(C)(C)C)CC3)C(=O)C2=O)cc1
    -16%	-13%
> CCCCn1nc(NC(=O)c2cccc(Cl)c2)c2cc3ccccc3nc21
    1%	0%
> CCCOc1c(C(=O)OC)sc2ccc(NC(=O)c3cccc(F)c3)cc12
    50%[activator]	-9%
> Cc1ccc(NC(=O)CSc2nnc(C)n3c2cc2sccc23)c(C)c1
    64%[activator]	50%[activator]
> Cc1ccc(S(=O)(=O)N2CCCCC2)cc1C(=O)OCc1nc2ccccc2nc1C
    ?	?
> COCCCn1c(=N)c(C(=O)NCc2ccco2)cc2c(=O)n3cccc(C)c3nc21
    -14%	-15%
> Cc1cc(C)cc(NC(=O)CCCn2c(=O)c3cccn3c3ccccc32)c1
    46%[activator]	30%[activator]
> Cc1ccc2c(c1)N(S(=O)(=O)c1ccc3c(c1)NC(=O)CC(=O)N3)CCO2
    -14%	-23%
> CC1=C(C(=O)Nc2ccc(C)cc2C)C(c2ccccc2F)n2nc(SCC(=O)c3ccc(C)cc3)nc2N1 (stereo not given)
    -1%	6%
> CC1(C)CC(=NNC(N)=S)CC(C)(C)N1
    12%	15%
> Cn1c(COc2cccc3cccnc23)nnc1SCC(=O)O
    3%	3%
> COc1ccnc(CS(=O)c2nc3ccc(OC(F)F)cc3[nH]2)c1OC (stereo not given)
    -5%	16%[11.5 µM]
> CCOC(=O)c1cc(OC(=O)c2cccc(F)c2)n(-c2ccccc2)n1
    -8%	23%
> Cn1c(SCC(=O)c2ccc3c(c2)NC(=O)CO3)nnc1-c1ccncc1
    -1%	2%
> CCOC(=O)c1c(C)c(-c2ccccc2)n(CC(=O)NCc2cccc(OC)c2)c1C
    -4%	-18%
> CCCCCCC/C=N/NC(=O)CCCCCCCCCCC
    -2%	2%
> CCOC(=O)c1nc(NCc2ccccc2OCC)c2ccccc2n1
    -2%	1%
> O=C(COc1ccc([N+](=O)[O-])cc1)Nc1ccc2oc(-c3cccnc3)nc2c1
    0%	33%[activator]

Compound profiles, from the list above. Order of values: StopGo RLuc	StopGo FLuc
Listed for CCc1ccc2nc(N3CCC(C(=O)O)CC3)sc2c1 = 36%[activator]	-78%
Listed for CCOC(=O)c1sc2ccccc2c1S(=O)(=O)NCc1ccccc1OC = 280%[activator]	-5%
Listed for Cc1nc(Nc2ccc(NC(=O)c3cccs3)cc2)cc(N2CCCCC2)n1 = ?	?
Listed for CSc1ccc(CNCCN2CCCC2)cc1 = 9%	-7%

The list goes on:
The line under a structure holds: StopGo RLuc	StopGo FLuc
> CCOC(=O)c1noc2nc(C)n(CC(=O)Nc3ccccc3F)c(=O)c12
    7%	-16%
> Cc1ccccc1-n1c(/C=C/c2c(C)n(C)c3ccccc23)nc2ccccc2c1=O
    -12%	2%
> O=C(O)c1cc(-c2ccc(Cl)s2)nc2c(Cl)cccc12
    ?	0%
> N#Cc1cccnc1N1CCN(C(C(=O)O)c2c[nH]c3cc(Cl)ccc23)CC1 (stereo not given)
    -15%	-17%
> CC(=O)Nc1ccc(C(=O)Nc2ccc3c(c2)N(C2CCCC2)C(=O)c2ccccc2S3)cc1
    ?	?
> CC(Cc1c[nH]c2ccccc12)C(=O)N(C)Cc1ccccc1 (stereo not given)
    36%[activator]	0%
> CCOc1ccccc1NC(=O)CSc1c(C)cnc2c1c(=O)n(C)c(=O)n2C
    -8%	-9%
> COc1cccc(NC(=O)Cn2c(=O)n(Cc3ccco3)c(=O)c3cc(OC)c(OC)cc32)c1
    6%	0%
> O=C(Cc1ccsc1)OCC(=O)c1ccc2c(c1)OCCO2
    -14%[1.06 µM]	14%
> Cc1ccccc1NC(=O)Cn1c(C)cc(=O)n2nc(-c3cccs3)nc12
    18%	12%
> COc1ccc(NC(=O)CN2C(=O)CSc3ccc(S(=O)(=O)N(C)C)cc32)cc1Cl
    0%	0%
> NC(=O)N/N=C1\CCCCC1c1ccccn1 (stereo not given)
    14%	18%
> CCOC(CNC(=O)Cc1c(C)nc2c(-c3ccccc3)c(C)nn2c1C)OCC
    2%	8%
> COc1cccc(OC)c1C(=O)Nc1cccc(-c2cn3ccsc3n2)c1
    -14%	8%
> CCn1cc(S(=O)(=O)c2cccc(C)c2)c(=O)c2cc(F)c(N3CCN(c4ccccc4)CC3)cc21
    -11%	-16%
> OCc1nc2ccccc2[nH]1
    -6%	-1%

High-throughput results from PubChem.
